Screening data deposited in PubChem BioAssay by several laboratories.
Vif A3G = inhibitors of Vif binding to APOBEC3G peptide, primary screen, biochemical, TR-FRET, GST-Vif 1-94, biotin-A3G peptide, dose response retest (AID 1117319) | hit rate 0.57% among 260,000 | TR-FRET GST-Vif / biotin-A3G peptide binding; higher % means a stronger effect; test concentration not given here; strong numbers were not always called active | one-dose inhibition, %; IC50 in µM for titrated hits;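 active means above the screen mean plus three standard deviations and confirmed in dose response; inconclusive means results disagree or hit not tested in dose response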;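 further: Vif residues 1-94 fused to GST binding biotinylated APOBEC3G peptide 110-148; 0% = full assay without inhibitor and 100% = GST in place of GST-Vif; retest series ran down from 100 µM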
FGF22 binding = shifts melting point of recombinant human FGF22; hit rate 1.5% among 340,000; Q9HCT0; calls only at 9.99 µM; AID 651658; recombinant FGF22 thermal shift, SYPRO orange fluorescence; percent of sucrose octasulfate shift, DMSO zero;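 active means melting point raised past a set limit in the mean and every replicate; inconclusive means no clear call; three in four hits are not shown here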
UCH37 inh = inhibitors of human deubiquitinating enzyme UCH37. Q9Y5K5. purified proteasome/UCH37, Ub-AMC cleavage fluorescence. inhibition, % (no concentration beside the values). hit rate 0.33% among 330,000. AID 588478;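 active means mean of two replicates above 20%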;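 further: 0% = compound-free wells with enzyme and 100% = wells lacking proteasome; stock transfer was 100 nL into about 20 µL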
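assay system = human UCH37 enzyme supplied as purified proteasome complex | amount = proteasome at 0.15 nM in the dispensed enzyme solution | schedule = 30 min compound-proteasome preincubation then 25 min substrate reaction, room temperature | measured by = fluorescence, ex 355 nm, em 460 nm | benchmarks = no-proteasome wells (full inhibition) and compound-free wells (no inhibition)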
HNF4A DNA FP = change in binding of human HNF4 alpha to DNA; HNF4a-FITC DNA binding, fluorescence polarization, 1 h; P41235; hit rate 0.3% among 360,000; AID 1224865; activity change, % at 10 µM; in the data active means activity change above about 30%, passing the limit was not always enough;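 further: controls were the assay level and a saturating level of protein; the project sought stronger binding though the title names inhibitors; some compounds called inactive have numbers as strong as hits; positive values seem to mean higher polarization but the record does not say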
Target sequence (P41235 whole entry, looked up): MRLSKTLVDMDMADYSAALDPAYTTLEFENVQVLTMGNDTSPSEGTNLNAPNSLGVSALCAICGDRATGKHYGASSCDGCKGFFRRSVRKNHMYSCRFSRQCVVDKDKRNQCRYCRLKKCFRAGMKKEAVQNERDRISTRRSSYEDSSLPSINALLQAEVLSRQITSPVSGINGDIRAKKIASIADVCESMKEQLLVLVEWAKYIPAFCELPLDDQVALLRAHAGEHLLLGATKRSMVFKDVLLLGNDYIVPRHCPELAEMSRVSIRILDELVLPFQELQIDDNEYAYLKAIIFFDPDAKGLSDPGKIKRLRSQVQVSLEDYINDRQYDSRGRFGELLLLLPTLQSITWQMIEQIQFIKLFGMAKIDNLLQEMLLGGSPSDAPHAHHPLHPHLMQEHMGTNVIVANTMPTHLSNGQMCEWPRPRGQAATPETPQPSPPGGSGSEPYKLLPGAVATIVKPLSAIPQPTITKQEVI
RanGTP-Impb inh = inhibitors of RanGTP-importin-beta interaction, primary screen, biochemical, FRET, CFP-Ran, YFP-importin-beta, homogeneous; cell-free CFP-Ran/YFP-importin-beta FRET ratio; inhibition, % (no concentration beside the values); hit rate 1.1% among 300,000;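 active means most replicates above 15%; inconclusive means exactly half above 15%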;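 further: 0% = DMSO wells and 100% = Ran loaded with GDP instead of GTP; wells of about 40 µL received 100 nL stock; the first replicate is given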
MLL AF4-AF9 inh = inhibitors of human MLL-AF4/AF9 interaction; P42568; AlphaScreen, biotin-AF4 peptide binding to FLAG-AF9; inhibition, % at 10 µM; hit rate 0.47% among 350,000;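 active means every replicate reaching a set inhibition limit, whatever the replicate mean, cut at about 25% in these data; inconclusive means mean inhibition reaches that limit but some replicates miss it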;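 further: 0% = plate neutral control median and 100% = total signal loss; the record names both 10 and 1 µM as test concentration; the first replicate is given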
Target sequence (P42568 whole entry, looked up): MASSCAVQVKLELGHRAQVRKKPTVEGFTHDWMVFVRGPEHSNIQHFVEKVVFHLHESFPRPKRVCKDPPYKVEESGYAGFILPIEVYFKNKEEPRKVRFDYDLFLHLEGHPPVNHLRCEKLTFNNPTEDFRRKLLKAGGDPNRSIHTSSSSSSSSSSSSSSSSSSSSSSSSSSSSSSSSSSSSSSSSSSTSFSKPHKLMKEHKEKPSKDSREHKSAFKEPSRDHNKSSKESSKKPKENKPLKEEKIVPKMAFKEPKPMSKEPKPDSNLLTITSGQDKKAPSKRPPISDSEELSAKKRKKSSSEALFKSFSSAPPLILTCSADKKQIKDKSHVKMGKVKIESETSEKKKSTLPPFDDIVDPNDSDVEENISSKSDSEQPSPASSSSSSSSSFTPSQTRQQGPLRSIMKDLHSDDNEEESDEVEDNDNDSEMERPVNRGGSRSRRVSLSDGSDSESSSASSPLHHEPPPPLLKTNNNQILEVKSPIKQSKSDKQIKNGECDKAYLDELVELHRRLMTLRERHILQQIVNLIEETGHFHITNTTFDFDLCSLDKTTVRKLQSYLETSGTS
Ecoli growth = E. coli growth inhibition; Escherichia coli growth, OD600, 23 h; active compounds read low; OD600 absorbance (concentration not given with the values); hit rate 0.21% among 330,000; AID 1053175;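 active means OD600 absorbance below the run mean of sample wells minus 3.6 SD, in any replicate, cut at about 0.56 in these data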;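 further: stock transfer was 300 nL into about 60 µL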
* hit, by the source's call; i = inactive; u = inconclusive; x = not tested or not shown; & = joins results of further samples. The list is partial; the hit share may differ from the screen's.

structure	Vif A3G	FGF22 binding	UCH37 inh	HNF4A DNA FP	RanGTP-Impb inh	MLL AF4-AF9 inh	Ecoli growth
COc1ccc(CN(C2CCCC2)S(=O)(=O)c2ccc(-n3cnnn3)c(OC)c2)cc1OC	-2.4%&-0.3%	i	1.1	3.8	4.8	-3.1	0.656
CN1CCN(S(=O)(=O)c2ccc(C3CCCCC3)cc2)CC1	1.7%	i	3.6	2.8	x	0.0	0.698
O=C(CSc1ccc(-c2ccc(Br)cc2)nn1)NC1CCCC1	x	i	1.4	3.5	5.3	1.9	0.644
COC(=O)c1ccc(COC(=O)c2ccc(C)c(S(=O)(=O)N3CCCCC3)c2)cc1	0.5%	i	-1.5	-2.1	x	-11.4	0.631
Cc1ccc2[nH]c(=O)c(C(c3nnnn3C(C)(C)C)N3CCN(C(=O)c4ccco4)CC3)cc2c1 (stereo unspecified)	2.8%	x	-10.2	1.1	2.2	x	0.671
N#CC(=C=[N-])c1nc2ccccc2nc1-[n+]1cccc(NC(=O)c2ccc(F)cc2)c1	9.1%	i	7.9	x	1.8	x	0.736
Cc1cc2cc(CNC(=O)Cc3ccc([N+](=O)[O-])cc3)ccc2[nH]1	4.0%	i	-1.1	5.0	3.9	1.3	0.654
CC(=O)c1ccc(NC(=O)CSc2nc3[nH]c(=O)cc(O)c3s2)cc1	x	i	x	-3.3	x	-1.4	x

Of the compounds above, these have an aryl thioether with sulfur outside any ring.
structure	Vif A3G	FGF22 binding	UCH37 inh	HNF4A DNA FP	RanGTP-Impb inh	MLL AF4-AF9 inh	Ecoli growth
O=C(CSc1ccc(-c2ccc(Br)cc2)nn1)NC1CCCC1	x	i	1.4	3.5	5.3	1.9	0.644
CC(=O)c1ccc(NC(=O)CSc2nc3[nH]c(=O)cc(O)c3s2)cc1	x	i	x	-3.3	x	-1.4	x

Next part.
structure	Vif A3G	FGF22 binding	UCH37 inh	HNF4A DNA FP	RanGTP-Impb inh	MLL AF4-AF9 inh	Ecoli growth
CC(O)CNC(=O)Cc1cc(=O)[nH]c(=O)[nH]1 (stereo unspecified)	x	i	2.1	2.2	-1.1	12.9	0.707
CN(C)c1ccc(N/C=C/C(=O)c2ccc(F)cc2)cc1	u	x	5.9	43.5*	-2.4	x	0.654
O=C(NCC(=O)N(c1ccc2c(c1)OCO2)C(C(=O)NC1CCCC1)c1cccs1)c1ccco1 (stereo unspecified)	-1.6%	x	0.2	-0.8	3.8	x	0.75
O=[N+]([O-])c1ccc(O)c(/C=N\N=C2c3ccccc3-c3ccccc32)c1	5.7%	x	x	0.8	-4.1	x	x
CCOc1ccccc1C(=O)NCCC(=O)O	-1.0%	x	3.2	2.3	2.9	-2.0	0.723
Cc1ccc([N+](=O)[O-])cc1S(=O)(=O)N1CCCC1	x	i	1.6	0.3	-4.2	6.0	0.672
CN1CCN(C(=O)COCc2cc(-c3ccc4c(c3)OCO4)on2)CC1	-3.6%	i	-1.7	-2.7	2.1	0.6	0.672
CCOc1ccc(N(CC(=O)N2CC=C(c3ccccc3)CC2)S(=O)(=O)c2c(C)noc2C)cc1	-0.2%	i	5.1	-1.8	0.2	-2.6	0.75
CN(C)c1nc(SCC#N)nc(N(C)C)n1	16.6%	x	0.1	-0.6	-0.2	x	0.721
O=C(NNC(=S)NC1CCCCC1)c1cccs1	x	x	1.6	-2.7	0.1	x	0.668
N#Cc1ccc(CN2CCN(C(=O)c3cn(Cc4ccccc4)nc3-c3cccnc3)CC2)cc1	-12.6%	i	0.4	2.9	x	2.7	0.675
CC(NC(=O)c1ccc2c(c1)C(=O)N(Cc1cccnc1)C2=O)c1ccccc1 (stereo unspecified)	x	i	1.3	3.0	1.5	-0.6	0.714
CCc1c(C)n([O-])c2c([n+]1=O)CCCCC2	-5.6%	x	1.1	0.6	-2.7	x	0.723
CSCC(=O)NC1CCCc2c1cnn2-c1ccc(C)c(C)c1 (stereo unspecified)	-3.5%	i	-2.4	0.8	11.2	-1.2	0.681
CN(C)CCN1CCN(C2CN(C3CCCCC3)S(=O)(=O)C2)CC1 (stereo unspecified)	x	i	x	1.0	x	0.0	x
CCOC(=O)c1c[nH][nH]c1=O	x	i	-0.5	-1.1	u	-0.8	0.678
COc1ccccc1C(=O)C1CCCN(C(=O)CCC(=O)c2ccccc2)C1 (stereo unspecified)	14.5%	i	-0.4	2.8	-0.6	-1.6	0.646
CNC[C@@H]1Oc2ccc(NC(=O)Nc3c(C)noc3C)cc2CC(=O)N([C@H](C)CO)C[C@H]1C	x	i	-0.1	8.0	x	-5.4	x
O=C(c1ccccc1)c1ccc2nc(-c3ccc(NC(=O)c4ccccc4F)cc3)[nH]c2c1	-6.6%	x	-2.3	0.0	-3.1	x	0.784
CCCOC(=O)c1ccc(OCC(O)Cn2c(C)nc3ccccc32)cc1 (stereo unspecified)	3.4%	i	6.6	-4.2	0.3	-4.5	0.764
CCN(CC(=O)Nc1ccccc1C(F)(F)F)C(=O)Cc1cccs1	-15.8%	i	6.2	-1.2	x	1.8	0.686
CCOC(=O)N1CCN(CCC(=O)Nc2cc([N+](=O)[O-])ccc2OC)CC1	u	i	1.6	-0.9	2.2	1.4	0.672
C/C=C(\C)CN1CCN(c2cccc(C)c2C)CC1	10.8%	x	2.0	3.4	2.0	x	0.682
CCOC(=O)C1=C(N)N2C(=O)C(C)SC2=C(C(=O)OC)C1c1cccc(OC)c1 (stereo unspecified)	7.4%	i	1.5	3.0	0.8	0.4	0.742
Cc1ccc(CC2CC(=O)N(Cc3ccco3)C2=O)cc1 (stereo unspecified)	-1.1%	x	-1.5	4.4	-1.8	x	0.737
COC(=O)C(NS(=O)(=O)c1ccc(F)cc1)c1ccccc1 (stereo unspecified)	-0.4%	i	1.0	2.1	-2.1	-1.3	0.648
N#Cc1cccc(C(=O)C(=O)N2CCCN(Cc3ccc(F)cc3)CC2)c1	x	i	x	-2.9	x	2.9	x
CC(=O)CCC1CC(c2ccc(Cl)cc2)=NO1 (stereo unspecified)	x	i	-0.9	2.3	2.5	1.7	0.624
Cc1cc(=O)n2nc(N3CCCC3C(=O)Nc3cccc(F)c3)sc2n1 (stereo unspecified)	x	i	5.5	-0.6	-1.1	-5.0	0.674
CCOc1ccccc1CN1CCCC(C(=O)Nc2cccc(-n3cccn3)c2)C1 (stereo unspecified)	x	i	5.0	2.1	-0.5	6.4	0.665
CC1=C(C(=O)N2CCOCC2)CC(CC(=O)NC2CCCC2)C(=O)N1CCCN1CCCC1=O (stereo unspecified)	-0.5%	i	x	3.2	x	-2.9	x
O=C(Nc1nnc(CCOCCOCCc2nnc(NC(=O)c3ccco3)s2)s1)c1ccco1	-5.8%	i	3.4	1.7	8.1	4.0	0.698

Profiles, looked up by structure:
Profile of N#Cc1cccc(C(=O)C(=O)N2CCCN(Cc3ccc(F)cc3)CC2)c1 → Vif A3G = x; FGF22 binding = i; UCH37 inh = x; HNF4A DNA FP = -2.9; RanGTP-Impb inh = x; MLL AF4-AF9 inh = 2.9; Ecoli growth = x
Profile of CC(=O)CCC1CC(c2ccc(Cl)cc2)=NO1 (stereo unspecified) → Vif A3G = x; FGF22 binding = i; UCH37 inh = -0.9; HNF4A DNA FP = 2.3; RanGTP-Impb inh = 2.5; MLL AF4-AF9 inh = 1.7; Ecoli growth = 0.624

The results go on.
structure	Vif A3G	FGF22 binding	UCH37 inh	HNF4A DNA FP	RanGTP-Impb inh	MLL AF4-AF9 inh	Ecoli growth
O=c1[nH]c2ccc(Cl)cc2c(-c2ccccc2)c1SC(=S)N1CCCCC1	6.7%	x	-0.1	-3.2	1.4	x	0.782
CCCS(=O)(=O)N1CCCC(C(=O)NCCCN2CCN(c3ccccc3F)CC2)C1 (stereo unspecified)	-2.0%	x	6.2	1.9	u	x	0.637
O=C(O)c1ccc(-c2nc(-c3ccc(Cl)cc3)cs2)cc1	15.1%	i	-17.6	-6.0	-3.3	-2.4	0.696
CCc1nc2ccccc2c(=O)n1NC(=O)c1c(O)c2ccccc2n(CC)c1=O	0.2%	i	-0.3	0.0	u	-1.8	0.707
Cn1c(=O)c2c(ncn2CC(=O)Nc2cc(S(=O)(=O)N3CCCCC3)ccc2Cl)n(C)c1=O	-6.7%	i	0.6	1.3	x	-3.1	0.688
COc1ccc(-n2c(C)cc(-c3csc(N)n3)c2C)cc1	u	x	4.9	7.9	-2.3	x	0.672
COc1ccc(NC(=O)Nc2ccc3c(c2)CC(=O)N([C@H](C)CO)C[C@H](C)[C@H](CN(C)Cc2ccc(C(=O)O)cc2)O3)cc1	x	i	1.5	-1.2	x	-5.1&-5.0	x
Cc1cc2ccccc2n1CCNC(=O)COc1ccc2ccccc2c1	-33.2%	i	1.4	0.5	4.2	-3.6	0.752
CCCC(=O)Nc1ccc2c(c1)C(=O)N(C)C[C@@H](OC)[C@H](C)CN(Cc1ccc(-c3ccccn3)cc1)[C@@H](C)CO2	x	i	x	5.4	x	1.9	x
CCOc1ccc(C(=O)Nc2ccc(S(=O)(=O)N3CCN(C)CC3)cc2)cc1	x	i	0.2	0.2	-0.9	1.5	0.649
COCCN(C(=O)COC(=O)C12CC3CC(CC(O)(C3)C1)C2)c1c(N)n(Cc2ccccc2)c(=O)[nH]c1=O	x	i	x	-0.2	x	-4.1	x
CC(C)Cc1csc(NC(=O)c2ccc(Cl)cc2)c1C(=O)O	-2.4%	x	0.3	-2.7	-1.8	x	0.648
CN(C)CCCOC(=O)c1ccc(Cl)cc1	1.1%	x	4.7	-0.3	-2.6	x	0.685
COc1ccc(C(=O)/C=C2/C(=O)Nc3ccccc32)cc1	11.7%	i	2.5	3.5	-2.6	0.8	0.699
C[C@@H]1CN([C@@H](C)CO)C(=O)c2cccc(NC(=O)Nc3ccc4c(c3)OCO4)c2O[C@H]1CN(C)S(=O)(=O)c1cn(C)cn1	x	i	2.2	-0.9	x	-1.6&-3.6	0.715
CC(=O)N1c2ccc(Cl)cc2C2C=CCC2C1c1cccc2ccccc12 (stereo unspecified)	19.4%	x	47.9*	2.7	x	x	0.699
COc1ccccc1NC(=O)[C@H](COCc1ccccc1)NC(=O)OC(C)(C)C	5.4%	x	5.7	-1.6	-0.4	x	0.734
CC(=O)Nc1c2c(nn1-c1ccc(F)cc1)CSC2	x	i	0.6	4.5	4.8	0.7	0.707
COCCNc1nc2c(c(=O)n(Cc3ccccc3F)c(=O)n2C)n1C	x	i	2.0	0.1	-1.2	3.6	0.707
CCOC(=O)C(CCCOc1ccccc1C)C(=O)OCC	-2.8%	x	0.6	1.5	x	x	0.738
COc1ccc(OC)c(/C=N/NC(=O)c2ccncc2)c1	3.6%	i	x	-2.9	-1.9	3.1	x
COCCNC(=S)N/N=C1\CC(C)CC(C)(C)C1 (stereo unspecified)	4.4%	i	x	2.0	-0.3	2.0	x
Cc1sc2ncnc(SCC(=O)NC(=O)NCc3ccco3)c2c1C	-3.9%	x	-0.5	-8.6	-1.7	x	0.727
CN(C(=O)c1nc(-c2ccccc2)n(-c2ccccc2)n1)C1CCS(=O)(=O)C1 (stereo unspecified)	-2.9%	i	1.3	-1.5	-3.3	3.2	0.674
Cc1cccc(N2CCN(C(=O)CCCOc3ccccc3)CC2)c1C	26.0%	x	5.6	2.3	7.8	x	0.713
CC[C@@]12C(=O)N(c3ccccc3)C(=O)N1[C@H](c1cccc(C)c1)[C@@H]1C(=O)N(Cc3ccccc3)C(=O)[C@@H]12	x	i	-0.5	-2.7	2.5	-2.3	x
COc1ccc(C2=CC3=C(Br)C(=O)C(C)(OC(=O)c4ccco4)C(=O)C3=CO2)cc1 (stereo unspecified)	u	x	0.6	-2.7	-0.9	x	x
